Compound activity as filed in PubChem BioAssay.
Yeast UUG start – alters start codon recognition fidelity in yeast; S. cerevisiae UUG-firefly luciferase reporter, luminescence/redox ratio; activity score, % at 18.7 µM; 350,000 compounds, 0.13% hits; AID 602363;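 active = replicate mean at a twofold rise or more, about +100% in these data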;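 note: firefly luciferase made from a UUG start codon reports start codon fidelity; reporter light over untreated wells divided by growth signal over untreated wells; some hits fall short of that in this replicate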
PABP polyA inh – blocks human PABP binding to poly(A) RNA; P11940; AID 2014; fluorescence polarization; inhibition, % at 35 µM; 290,000 compounds, 1% hits;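 active = 50% or more with normal probe brightness, or confirmed in later tests; inconclusive = above 50% with abnormal brightness, or retests that disagree; inactive = below 50% or failed in later tests; about a fifth of its hits are not listed in these tables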;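 note: calls also rest on retests at 20 µM and on dose response follow-up; controls were probe without protein and protein plus probe with vehicle; some compounds called inactive have numbers as strong as hits; many hits fall short of the cut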
MT1-MMP act inh – MT1-MMP (human) activation inhibition | HT1080 RFP-PRO-GFP cells, GFP/RFP ratio fluorescence, overnight; percent of plate control window, DMSO zero | GFP/RFP ratio change, % at 20 µM | P50281 | 360,000 compounds, 0.061% hits | AID 651647;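 active = GFP/RFP ratio change of at least 30% with cell ATP level not reduced by more than half and red fluorescence within 50% of control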; note: strong numbers were not always called active
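Material: RFP-PRO-GFP reporter HT1080 cells. Dosing: single-point 20 µM compound, 1% DMSO. Controls: DMSO and RFP-L50D-GFP cell wells. Timing: cells overnight before dosing, compound overnight, 37 °C, 5% CO2. Measure: GFP/RFP fluorescence ratio.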
Rce1 inhib – inhibitors of yeast Ras-converting enzyme; Q03530; yeast membranes, quenched prenylated peptide cleavage fluorescence; calls only; 290,000 compounds, 0.27% hits; AID 2563;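 active = fall in fluorescence gain of 50% or more versus controls, with final raw signal at or below 3038400; inconclusive = same 50% fall but final raw signal above 3038400; inactive = fall in fluorescence gain under 50%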;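 note: plate controls were neutral control wells for no effect and wells lacking membranes for full effect; tested at 10 µM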
Target sequence (Q03530 whole entry, looked up): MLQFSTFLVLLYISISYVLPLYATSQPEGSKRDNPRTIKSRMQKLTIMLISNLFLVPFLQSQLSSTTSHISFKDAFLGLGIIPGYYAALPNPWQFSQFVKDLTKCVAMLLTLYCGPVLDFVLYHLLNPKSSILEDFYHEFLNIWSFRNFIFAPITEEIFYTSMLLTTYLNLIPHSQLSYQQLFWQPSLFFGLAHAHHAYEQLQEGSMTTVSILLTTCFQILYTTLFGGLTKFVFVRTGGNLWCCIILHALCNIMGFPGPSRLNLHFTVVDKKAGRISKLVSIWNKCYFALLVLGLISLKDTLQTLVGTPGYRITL
eIF4H inh – inhibitors of RNA binding by human eIF4H. eIF4H fluorescence polarization binding assay. 290,000 compounds, 0.94% hits. inhibition, % at 35 µM. Q15056. AID 2012;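 active = 50% or more with normal probe brightness, or confirmed in later tests; inconclusive = above 50% with abnormal brightness, or retests that disagree; inactive = below 50% or failed in later tests; about a fifth of its hits are not listed in these tables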;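 note: calls also rest on retests at 20 µM and on dose response follow-up; 0% = protein and probe with vehicle and 100% = probe without protein; strong numbers were not always called active; many hits fall short of the cut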
Env fusion inh – inhibitors of HIV Env-mediated cell fusion. HeLa-JRFL Env/CEM21 cell fusion, luciferase. inhibition, % at 12.3 µM. 360,000 compounds, 1.1% hits. AID 651610;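 active = mean replicate inhibition score of at least 50 and every replicate individually at or above 50; inconclusive = only one of the two criteria met; inactive = mean below 50 and not all replicates reaching 50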;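 note: 0% = plate neutral controls and 100% = maraviroc near 300 nM; one replicate is shown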
CSC inhib – blocks cancer stem cells | cancer stem cell-like cells viability, luminescence | AID 2717 | inhibition, % at 7.5 µM | 300,000 compounds, 1.1% hits;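 active = mean at 75% or more and at least half the replicates too; inconclusive = mean and replicates disagree; tested in HMLE shEcad cells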;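 note: 0% = median of negative and 100% = median of positive control wells; the first replicate is given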
eIF4H inh retest – second read-out of eIF4H inh, no call of its own (marks repeat the call); inhibition, %; compound at 20 µM; confirmation average;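 mean of two retest wells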
PABP polyA inh retest – further read-out of PABP polyA inh, marked with its call; inhibition, %; compound at 20 µM; confirmation repeats;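 mean of two retest wells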
MT1-MMP act inh RFP – recorded beside MT1-MMP act inh, whose call it bears; RFP signal change, %; measured here: RFP expression control read;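 0 = vehicle wells; hits needed this value within 50% of zero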
Numbers without * were called inactive; i = inactive; u = inconclusive; x = not tested or not shown.

SMILES	Yeast UUG start	PABP polyA inh	MT1-MMP act inh	MT1-MMP act inh RFP	Rce1 inhib	eIF4H inh	Env fusion inh	CSC inhib	others
CCOC(=O)C1C(c2ccccc2)NC(=S)NC1(C)O (centres undefined)	x	-13	5	4	i	1	-5	-12
O=C(CSc1ncnc2c1cnn2CCc1ccccc1)Nc1cccc(C(F)(F)F)c1	-18	-15	-10	-23	i	-12	x	20
Cc1c(C(=O)NCc2ccc(Cl)c(Cl)c2)sc(=O)n1Cc1ccccc1F	-5	x	7	-1	x	x	-31	x
CC(=O)NS(=O)(=O)c1ccc(NC(=O)/C=C/c2ccccc2Cl)cc1	-10	3	0	3	i	4	x	9
CCOC(=O)c1cc2c(=O)n3ccccc3nc2n(CCOC)c1=NC(=O)c1c(-c2c(F)cccc2Cl)noc1C	9	-8	1	2	i	1	6	40
COc1ccccc1C(=O)Nc1ccc(S(=O)(=O)NC2=NCCCCC2)cc1	x	-8	4	0	i	1	5	-6
COC(=O)C(C(=O)OC)C(C(C)C)C(C(=O)OC)C(=O)OC	-9	-4	3	4	i	4	x	-10
CCOC(=O)C1=C(C)NC(C)=C(C(=O)OCC)C1c1ccc(Br)o1	5	7	3	-6	i	-2	x	7
O=C(NCCc1ccccc1)C1c2ccccc2C(=O)N1Cc1cccs1 (centres undefined)	-18	4	1	2	i	2	6	8
CN(CC(=O)Nc1ccc(F)c(F)c1F)C(=O)CN1C(=O)NC2(CCCC2)C1=O	5	x	5	8	i	x	16	-5

The closing 2 compounds of the part above come first, to join the parts.
SMILES	Yeast UUG start	PABP polyA inh	MT1-MMP act inh	MT1-MMP act inh RFP	Rce1 inhib	eIF4H inh	Env fusion inh	CSC inhib	others
O=C(NCCc1ccccc1)C1c2ccccc2C(=O)N1Cc1cccs1 (centres undefined)	-18	4	1	2	i	2	6	8
CN(CC(=O)Nc1ccc(F)c(F)c1F)C(=O)CN1C(=O)NC2(CCCC2)C1=O	5	x	5	8	i	x	16	-5
CN(C)c1ccc(C(=O)OCC(=O)N2CCOCC2)cc1	x	-6	2	10	i	-1	1	-11
CCOC(=O)c1c(NC(=O)CN2CCCc3ccccc32)sc(C(C)=O)c1C	x	0	-8	1	i	-6	x	9
Cc1cccc(C)c1NC(=O)CSc1nnc([C@H](C)NC(=O)OC(C)(C)C)o1	-20	-1	0	3	i	-2	-29	-2
COc1ccc(N(CC(=O)NCc2ccco2)S(=O)(=O)c2ccc(C)cc2)cc1OC	-17	-1	-1	0	i	-1	4	x
CCOC(=O)N1CCN(C(=O)CSc2nnc(Cc3ccccc3)o2)CC1	3	6	1	1	i	-2	-4	-2
Cc1cc(C)c(C)c(C(=O)COC(=O)CNC(=O)CN2C(=O)c3ccccc3C2=O)c1C	-20	9	3	5	i	-9	-10	x
CCN(c1ccccc1)S(=O)(=O)c1cc2c(cc1C)n(C)c(=O)c(=O)n2C	-3	-2	0	2	i	-8	5	x
O=C(Nc1cccc2ncccc12)c1ccc(Br)c([N+](=O)[O-])c1	x	9	0	2	i	3	7	-7
CCCCC1(CO)C(=O)N(c2ccccc2)N(c2ccccc2)C1=O	-9	16	5	5	i	11	-1	-15
N=c1c2c3c(sc2ncn1Cc1ccco1)CCCCC3	x	2	0	2	i	10	8	49

Continued, overlapping the part above by five compounds.
SMILES	Yeast UUG start	PABP polyA inh	MT1-MMP act inh	MT1-MMP act inh RFP	Rce1 inhib	eIF4H inh	Env fusion inh	CSC inhib	others
Cc1cc(C)c(C)c(C(=O)COC(=O)CNC(=O)CN2C(=O)c3ccccc3C2=O)c1C	-20	9	3	5	i	-9	-10	x
CCN(c1ccccc1)S(=O)(=O)c1cc2c(cc1C)n(C)c(=O)c(=O)n2C	-3	-2	0	2	i	-8	5	x
O=C(Nc1cccc2ncccc12)c1ccc(Br)c([N+](=O)[O-])c1	x	9	0	2	i	3	7	-7
CCCCC1(CO)C(=O)N(c2ccccc2)N(c2ccccc2)C1=O	-9	16	5	5	i	11	-1	-15
N=c1c2c3c(sc2ncn1Cc1ccco1)CCCCC3	x	2	0	2	i	10	8	49
O=C(c1cccc(Cl)c1)N1CCC(=O)N(C(COCc2cccc(Cl)c2)Cc2ccccc2)CC1 (centres undefined)	-8	-7	-6	-10	i	-13	60*	12
Cc1cccc(Nc2nc(N)c([N+](=O)[O-])c(NCCO)n2)c1	x	-4	2	-3	i	0	-32	-2
COc1ccc(Oc2ccc3c(C(F)(F)F)cc(C(F)(F)F)nc3n2)cc1	-2	7	10	-3	i	-6	6	2
O=C(OCC(=O)N1CCc2ccccc21)c1c2c(nc3ccccc13)CCCCC2	x	-6	0	-6	i	1	x	55
COc1ccc(CCN2CC(C(=O)N(C)C3CCOCC3)CCC2=O)cc1 (centres undefined)	-16	-7	-4	1	i	-6	-11	-5
Cn1c(N)c(S(=O)(=O)c2ccc(Br)cc2)c2nc3ccccc3nc21	-11	-1	-4	0	i	2	-82	-8
COc1ccc(C(=O)NC(=S)Nc2ccc(N3CCCC3)cc2)cc1OC	-27	12	-2	-3	i	10	x	16
Cc1ccc(S(=O)(=O)NCC(C)n2cncn2)cc1 (centres undefined)	-14	-3	2	1	i	-4	18	-3
CCOC(=O)N1CCN(C(=O)CSc2ccc3nnc(-c4ccncc4)n3n2)CC1	-22	-4	-11	-1	i	14	4	-5
CC(C)(C)NC(=O)c1ccc2c3c(cccc13)CC2	x	-8	-12	-2	i	-8	8	-14
C[C@@H]1CCCCCCCCC(=O)OCCN1C(=O)OC(C)(C)C	0	x	4	2	x	x	21	-9
COc1ccc(CC(=O)N(C)C2CCCCC2)cc1S(=O)(=O)N1CCOCC1	x	u	0	-2	i	-8	-12	-16
CC(=O)N1Cc2cc([N+](=O)[O-])ccc2Oc2ccccc21	x	-20	3	0	i	-3	26	-2
CC(C)[C@H](NC(=O)c1ccccc1)C(=O)OCC(=O)Nc1ncc(Cl)cc1Cl	-13	x	-1	1	x	x	-25	x
O=C(Nc1ccc(S(=O)(=O)NCC2CCCO2)cc1)c1ccccc1 (centres undefined)	-7	-3	0	-9	i	-1	15	0
Cc1ccc(SCC(=O)NC2CCS(=O)(=O)C2)cc1 (centres undefined)	x	-5	2	5	i	-5	-6	x
CN(C)CC#CCOC(c1ccccc1)c1ccccc1	-17	3	-1	0	i	-4	21	16
CN(C(=S)Nc1ccc(Oc2ccccc2)cc1)C1CCCCC1	x	4	4	-7	i	-6	9	47
Brc1cccc(-c2n[nH]c(-c3ccccc3)n2)c1	x	11	-1	-5	i	-9	x	-2
CC(C)Cn1c(CN2CCN(C)C(CCO)C2)nc2ccccc21 (centres undefined)	-20	9	-2	2	i	-12	-9	-9
Cc1ccc(S(=O)(=O)c2nc(-c3ccccc3Cl)oc2N2CCN(C)CC2)cc1	-7	x	-3	-1	x	x	10	2
CCC1CC(C(=O)Nc2ccccc2)C(=O)O1 (centres undefined)	-7	x	-1	4	i	x	1	-9
COc1ccc(N2CCN(Cc3cc(=O)oc4ccc(C)cc34)CC2)cc1	-15	-2	-1	0	i	-6	-32	-7
C=CCN(C(=O)Nc1ccc2oc(C)nc2c1)c1ccccc1	-6	-12	-2	-8	i	52	x	x	eIF4H inh retest=-1;PABP polyA inh retest=-4
COC(=O)CSC1=C(C#N)C(c2ccc(Cl)cc2)C(C(=O)OC)C(=O)N1 (centres undefined)	-27	-7	2	1	i	-8	x	x
Cc1ccc(NS(=O)(=O)c2ccc(-n3cccn3)cc2)c(C)c1	-7	9	1	-6	i	-2	2	-4
O=C(NCC1CCCO1)C1CCN(C2CCN(C(=O)C3CCCCC3)CC2)CC1 (centres undefined)	-25	-10	0	0	i	-11	8	-18
CCOc1ccc(N2CC(C(=O)Nc3ccccc3C(=O)N3CCOCC3)CC2=O)cc1 (centres undefined)	-4	8	-1	-1	i	3	5	-18
CCn1nc(C)c(Br)c1-c1nc(CS(=O)(=O)c2ccc(F)cc2)no1	x	1	8	3	i	-4	6	-1
COc1cc(C(O)CO)ccc1O (centres undefined)	-23	x	1	4	x	x	14	-5

Random excerpt: 6 records from the list, in no set order.
SMILES	Yeast UUG start	PABP polyA inh	MT1-MMP act inh	MT1-MMP act inh RFP	Rce1 inhib	eIF4H inh	Env fusion inh	CSC inhib	others
Cc1ccc(SCC(=O)NC2CCS(=O)(=O)C2)cc1 (centres undefined)	x	-5	2	5	i	-5	-6	x
O=C(NCCc1ccccc1)C1c2ccccc2C(=O)N1Cc1cccs1 (centres undefined)	-18	4	1	2	i	2	6	8
COC(=O)CSC1=C(C#N)C(c2ccc(Cl)cc2)C(C(=O)OC)C(=O)N1 (centres undefined)	-27	-7	2	1	i	-8	x	x
CN(C)c1ccc(C(=O)OCC(=O)N2CCOCC2)cc1	x	-6	2	10	i	-1	1	-11
CCOC(=O)c1cc2c(=O)n3ccccc3nc2n(CCOC)c1=NC(=O)c1c(-c2c(F)cccc2Cl)noc1C	9	-8	1	2	i	1	6	40
CCn1nc(C)c(Br)c1-c1nc(CS(=O)(=O)c2ccc(F)cc2)no1	x	1	8	3	i	-4	6	-1

The list goes on.
SMILES	Yeast UUG start	PABP polyA inh	MT1-MMP act inh	MT1-MMP act inh RFP	Rce1 inhib	eIF4H inh	Env fusion inh	CSC inhib	others
Cn1c(=O)c2c(nc(SCc3cccnc3)n2Cc2ccc(F)cc2)n(C)c1=O	-4	6	-6	3	i	-13	8	x
O=C(CSc1nc2ccccc2o1)NC1CCCC1	x	2	-4	7	i	2	-8	-7
CCOc1ccc(N(CC(=O)NCC2CCCO2)S(=O)(=O)c2ccc(C)cc2)cc1 (centres undefined)	-10	0	5	9	i	12	11	x
COc1ccc(NS(=O)(=O)c2cc(NC(=O)c3cc(F)c(F)cc3Cl)ccc2N2CCOCC2)cc1	-7	x	3	-6	x	x	8	-4
O=C(Nc1cccc2ccccc12)c1ccc(F)cc1	-13	-1	1	-1	i	-2	-19	-3
COc1ccc(-c2c(-c3ccsc3)oc(=O)c3cc(OC)c(OC)cc23)cn1	-5	x	-5	0	x	x	-17	x
CCN1CCCC1CNC(=O)CCc1nnc(CCC2CCCCC2)o1 (centres undefined)	-11	-8	2	4	i	10	-8	-10
CN(C)CCCN(C(=O)c1ccc(N2C(=O)CCC2=O)cc1)c1nc2c(F)cccc2s1	-8	-7	-2	5	i	8	24	-11
CCOC(=O)C1CCN(C(=O)c2cc(S(=O)(=O)N3CCCCC3)ccc2C)CC1	-3	-18	-2	2	i	-4	-9	5
